HepG2 = HepG2 cell cytotoxicity, dose response, cytotoxicity control, ATP luminescence, cherry-pick, activator set 2 (AID 1053143). activity change, negative = cytotoxicity, % at the top dose, mostly 26 µM; hits show AC50 in µM. HepG2 viability, CellTiter-Glo ATP luminescence, 72 h. 3,400 compounds, 3.7% hits;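 active = fitted AC50 at most twice the highest valid dose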;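 note: 0 = neutral control and -100 = positive control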
Starred values were filed as active, the others as inactive. Some of the compounds tested; count on the stated rates, not on these rows.

SMILES | HepG2
Cc1cc(C(=O)Nc2ccc3c(c2)OCCO3)nn1C(C)(C)C | -9.1%
CC(Cc1ccccc1)NCCC(c1ccccc1)c1ccccc1 (stereo not given) | 14.8µM*
CCc1ccc(N2C(=O)NC(=O)/C(=C\c3cccn3CCOc3ccc(C(C)C)cc3)C2=O)cc1 | -19.6%
Cn1c(O)c(Cc2ccc(OCc3ccccc3)cc2)c(=O)n(C)c1=O | -2.9%
Cn1cc(C(=O)OCC(=O)N2CCCCC2)c2ccccc21 | -3.1%
CCCCn1c(=O)c(C=Nc2cccnc2Cl)c(O)n(CCCCl)c1=O | 4.7%

Three of the compounds above, with each value named:
compound: Cn1c(O)c(Cc2ccc(OCc3ccccc3)cc2)c(=O)n(C)c1=O
- HepG2: -2.9%

compound: Cn1cc(C(=O)OCC(=O)N2CCCCC2)c2ccccc21
- HepG2: -3.1%

compound: CC(Cc1ccccc1)NCCC(c1ccccc1)c1ccccc1 (stereo not given)
- HepG2: 14.8µM*

Assay outcomes as filed in PubChem.
